PKD1 inh: inhibitors of human PKD1 kinase, biochemical, fluorescence polarization | PKD1 kinase fluorescence polarization assay | inhibition, %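 (about 10 µM by stock and volumes)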 | 200,000 tested, 0.056% active | Serine/threonine-protein kinase D1 (Homo sapiens), Q15139;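 active = inhibition of 50% or more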;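 also: controls were vehicle for no effect and a reference inhibitor for full effect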
Target sequence (Q15139 whole entry, looked up): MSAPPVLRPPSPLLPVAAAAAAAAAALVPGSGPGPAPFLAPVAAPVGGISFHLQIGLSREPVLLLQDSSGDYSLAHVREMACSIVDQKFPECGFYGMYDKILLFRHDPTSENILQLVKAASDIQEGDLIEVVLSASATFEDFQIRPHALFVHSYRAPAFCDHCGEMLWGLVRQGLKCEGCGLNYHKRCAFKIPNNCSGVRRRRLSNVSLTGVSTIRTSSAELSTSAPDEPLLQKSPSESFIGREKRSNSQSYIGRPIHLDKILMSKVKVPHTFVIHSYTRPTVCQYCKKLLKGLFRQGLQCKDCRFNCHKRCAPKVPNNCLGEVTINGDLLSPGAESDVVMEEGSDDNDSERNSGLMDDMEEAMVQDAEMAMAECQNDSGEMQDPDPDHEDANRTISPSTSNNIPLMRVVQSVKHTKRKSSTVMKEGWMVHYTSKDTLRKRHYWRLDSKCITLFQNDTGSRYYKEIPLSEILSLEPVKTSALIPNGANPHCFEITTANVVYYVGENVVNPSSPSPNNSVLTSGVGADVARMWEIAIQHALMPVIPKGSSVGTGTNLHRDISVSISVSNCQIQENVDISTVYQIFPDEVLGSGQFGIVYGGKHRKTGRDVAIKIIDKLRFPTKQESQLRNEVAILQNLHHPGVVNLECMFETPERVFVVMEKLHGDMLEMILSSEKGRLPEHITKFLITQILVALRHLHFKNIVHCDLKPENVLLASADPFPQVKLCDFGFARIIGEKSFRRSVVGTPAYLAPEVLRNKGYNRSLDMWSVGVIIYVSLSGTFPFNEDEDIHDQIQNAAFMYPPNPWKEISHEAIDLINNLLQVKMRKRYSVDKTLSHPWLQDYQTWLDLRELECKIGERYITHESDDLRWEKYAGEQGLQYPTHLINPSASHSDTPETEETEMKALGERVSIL
HSV augment: enhancers of HSV replication in host cells, fold increase, host cell viability | HSV replication augmentation in cells | maximum fold increase | 220,000 tested, 0.005% active | AID 1956, 2009;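 active = peak rise of 1.5-fold or more in the series; tested in PC3 cells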;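 also: first round at 10 µM; read as green reporter fluorescence; hits show the peak of a series up to 25 µM; 1 = signal of infected wells without compound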
RGS16-Gao HTS: modulators of RGS16 binding to Galphao, primary screen, biochemical, human proteins, multiplexed bead flow cytometry. 220,000 tested, 0.38% active. bead-based flow cytometry RGS16-Galphao binding, fluorescence; actives lie on both sides. binding response (% of control), % at 10 µM;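 active = below 25% or above 175%, edge rows of some plates excepted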;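 also: Galphao activated by GDP with aluminum fluoride before binding; 100% = wells without compound and 0% = beads without RGS; some results beyond the cut were filed as inactive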
INS promoter inh: inhibitors of insulin promoter-driven GFP, primary screen, imaging, TRM-6 cells (human fetal islet line), eGFP reporter, cell count. reporter expression induced with tamoxifen. inhibition, % at 2 µM. 130,000 tested, 0.9% active. AID 1273, 2008;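 active = inhibition above the mean plus 3 SD, with well images judged a real hit on visual review, cut at about 60% in these data, passing the limit was not always enough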
GALR2 agonist: GALR2 receptor agonists, primary screen, cell-based; 140,000 tested, 0.48% active; activation, %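 (tested at 5 µM)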; Galanin receptor type 2 (Homo sapiens), O43603; GALR2-expressing cells, agonist activation read-out;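 active = above mean plus 3 SD of all compounds, about 5% in these data, not always enough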;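 also: 0% = vehicle buffer wells and 100% = reference agonist at full effect; tested in CHO reporter cells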
INS promoter inh cell count: second read-out of INS promoter inh, no call of its own (marks repeat the call); normalized cell count, %; measured here: cell count, toxicity; reference of the scale not given here;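 cells exposed to compound for 48 h; stained nuclei by imaging scaled within each plate; lower means fewer cells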
HSV augment primary fold: second read-out of HSV augment, no call of its own (marks repeat the call); fold increase; compound at 10 µM; measured here: primary screen fold increase 10 uM; tested in PC3 cells;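 GFP signal in the first replicate; 1 = infected wells without compound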
Active calls of the source: *.

Screening COc1ccc(CC(=O)N2CCN=C2SC)cc1OC returned PKD1 inh 0, HSV augment inactive, RGS16-Gao HTS 100 and HSV augment primary fold 1.1.
`Cc1cccc(C)c1NC(=O)Cn1cnc2c(=O)n(C)c(=O)n(C)c21` gave PKD1 inh -3, HSV augment inactive, RGS16-Gao HTS 101, INS promoter inh -20, GALR2 agonist -0.7, INS promoter inh cell count 46 and HSV augment primary fold 0.64.
COc1ccc(-c2noc(CCCC(=O)Nc3ccc(C(N)=O)cc3)n2)cc1 was read as PKD1 inh 1, HSV augment inactive, RGS16-Gao HTS 102, INS promoter inh -23, GALR2 agonist 0.2, INS promoter inh cell count 153 and HSV augment primary fold 0.76.
Screening CC1CN(C(=O)c2ccccc2Nc2ccc(SC(F)F)cc2)CC(C)O1 (stereo unspecified) returned PKD1 inh -6, HSV augment inactive, RGS16-Gao HTS 102, INS promoter inh -25, INS promoter inh cell count 156 and HSV augment primary fold 0.87.
Screening COC(=O)C1CCN(CC(=O)Nc2sc3c(c2C#N)CCC3)CC1 returned PKD1 inh -10, HSV augment inactive, RGS16-Gao HTS 102, INS promoter inh 25, GALR2 agonist -3.8, INS promoter inh cell count 72 and HSV augment primary fold 0.88.
Screening O=C(NCCOc1ccc(Cl)cc1)C(=O)NCC1CCCO1 (stereo unspecified) returned PKD1 inh 3, HSV augment inactive, RGS16-Gao HTS 103 and HSV augment primary fold 1.
For O=C(Cn1cnc2c(nnn2Cc2ccc(F)cc2)c1=O)N1CCCc2ccccc21 the results were PKD1 inh -9, HSV augment inactive, RGS16-Gao HTS 99, INS promoter inh 6, GALR2 agonist -2.3, INS promoter inh cell count 107 and HSV augment primary fold 0.89.
For O=C(O)c1ccc(Cl)c(S(=O)(=O)N2CCCCCC2)c1 the results were PKD1 inh -13, HSV augment inactive, RGS16-Gao HTS 102, GALR2 agonist -1.1 and HSV augment primary fold 0.77.
CCN(CCn1cccn1)C(=O)c1cc(COc2cccc3cccnc23)on1 was read as PKD1 inh 5, HSV augment inactive, RGS16-Gao HTS 105 and HSV augment primary fold 1.1.
For CC(C)=C(NC(=O)c1ccccc1)C(=O)Nc1ccc(C(=O)O)cc1 the results were HSV augment inactive, RGS16-Gao HTS 101 and HSV augment primary fold 0.94.
Nc1nnc(SCC(=O)Nc2ccc(S(=O)(=O)N3CCOCC3)cc2)s1 was read as PKD1 inh -4, HSV augment inactive, RGS16-Gao HTS 108, INS promoter inh -14, GALR2 agonist -1.0, INS promoter inh cell count 113 and HSV augment primary fold 0.84.
Screening Cc1ccc(-c2nc3c(c(=O)[nH]c(=O)n3Cc3ccccc3)n2Cc2ccccc2)o1 returned PKD1 inh -2, HSV augment inactive, RGS16-Gao HTS 76, INS promoter inh 20, INS promoter inh cell count 97 and HSV augment primary fold 0.98.
For COc1ccc(CNC(=O)CC2Sc3ccccc3NC2=O)cc1 (stereo unspecified) the results were PKD1 inh -5, HSV augment inactive, RGS16-Gao HTS 100, INS promoter inh 20, INS promoter inh cell count 129 and HSV augment primary fold 0.95.
For CC(=O)N1N=C(c2ccc3nccnc3c2)CC1c1ccccc1 (stereo unspecified) the results were PKD1 inh -2, HSV augment inactive, RGS16-Gao HTS 103, INS promoter inh -7, GALR2 agonist -1.6, INS promoter inh cell count 121 and HSV augment primary fold 0.91.
Screening O=C(Nc1ccc(Cc2ccncc2)cc1)c1cc([N+](=O)[O-])ccc1N1CCOCC1 returned PKD1 inh -3, HSV augment inactive, RGS16-Gao HTS 105 and HSV augment primary fold 0.95.

Brought forward from above: five entries, then new ones.
Nc1nnc(SCC(=O)Nc2ccc(S(=O)(=O)N3CCOCC3)cc2)s1 was read as PKD1 inh -4, HSV augment inactive, RGS16-Gao HTS 108, INS promoter inh -14, GALR2 agonist -1.0, INS promoter inh cell count 113 and HSV augment primary fold 0.84.
Screening Cc1ccc(-c2nc3c(c(=O)[nH]c(=O)n3Cc3ccccc3)n2Cc2ccccc2)o1 returned PKD1 inh -2, HSV augment inactive, RGS16-Gao HTS 76, INS promoter inh 20, INS promoter inh cell count 97 and HSV augment primary fold 0.98.
For COc1ccc(CNC(=O)CC2Sc3ccccc3NC2=O)cc1 (stereo unspecified) the results were PKD1 inh -5, HSV augment inactive, RGS16-Gao HTS 100, INS promoter inh 20, INS promoter inh cell count 129 and HSV augment primary fold 0.95.
For CC(=O)N1N=C(c2ccc3nccnc3c2)CC1c1ccccc1 (stereo unspecified) the results were PKD1 inh -2, HSV augment inactive, RGS16-Gao HTS 103, INS promoter inh -7, GALR2 agonist -1.6, INS promoter inh cell count 121 and HSV augment primary fold 0.91.
Screening O=C(Nc1ccc(Cc2ccncc2)cc1)c1cc([N+](=O)[O-])ccc1N1CCOCC1 returned PKD1 inh -3, HSV augment inactive, RGS16-Gao HTS 105 and HSV augment primary fold 0.95.
Screening Cc1nsc(Nc2ccccc2)c1C#N returned PKD1 inh 8, HSV augment inactive, RGS16-Gao HTS 100 and HSV augment primary fold 0.86.
C=CCn1cc(/C=N/Nc2nc3ccccc3[nH]2)c2ccccc21 was read as PKD1 inh -2, HSV augment inactive, RGS16-Gao HTS 99, INS promoter inh 10, GALR2 agonist -0.7, INS promoter inh cell count 107 and HSV augment primary fold 0.51.
COc1ccc(-n2nc(C(=O)NCc3ccco3)c3c4ccccc4n(C)c3c2=O)cc1 was read as PKD1 inh -12, HSV augment inactive, RGS16-Gao HTS 105, INS promoter inh -67, GALR2 agonist -0.7, INS promoter inh cell count 123 and HSV augment primary fold 0.69.
O=C(Nc1nc2ccc(F)cc2s1)C1CCN(S(=O)(=O)c2cc([N+](=O)[O-])ccc2Cl)CC1 was read as PKD1 inh -10, HSV augment inactive, RGS16-Gao HTS 93, INS promoter inh -8, GALR2 agonist 0.1, INS promoter inh cell count 141 and HSV augment primary fold 0.66.
`N#C/C(=C\c1ccc(-c2ccc(Br)cc2)o1)C(=O)NCCc1c[nH]c2ccccc12` gave PKD1 inh -8, HSV augment inactive, RGS16-Gao HTS 101, INS promoter inh -14, GALR2 agonist 1.0, INS promoter inh cell count 142 and HSV augment primary fold 0.82.
Cc1cc(C)n(CC(=O)Nc2ccccc2)n1 was read as PKD1 inh -17, HSV augment inactive, RGS16-Gao HTS 98, INS promoter inh -24, GALR2 agonist -3.2, INS promoter inh cell count 80 and HSV augment primary fold 0.89.
`COc1ccc(/C=N/NC(=O)c2cc(-c3ccccc3OC(C)C)nc3ccccc23)cc1CN1CCOCC1` gave PKD1 inh -5, HSV augment inactive, RGS16-Gao HTS 126, INS promoter inh 34, GALR2 agonist 0.0, INS promoter inh cell count 142 and HSV augment primary fold 0.73.
Screening O=C(Cc1ccccc1)N/N=C/c1cc2c(cc1Cl)OCO2 returned PKD1 inh 0, HSV augment inactive, RGS16-Gao HTS 102, INS promoter inh -329, GALR2 agonist -1.2, INS promoter inh cell count 73 and HSV augment primary fold 0.93.
CN1CCc2c(sc3c2c(=O)n(-c2ccccc2)c2n[nH]c(=S)n32)C1 was read as PKD1 inh -12, HSV augment inactive, RGS16-Gao HTS 101, INS promoter inh 17, GALR2 agonist -2.0, INS promoter inh cell count 70 and HSV augment primary fold 0.9.
`CC(/C=C/c1ccco1)=N\NC(=O)CNc1cccc(C)c1` gave PKD1 inh 3, HSV augment inactive, RGS16-Gao HTS 105 and HSV augment primary fold 1.2.
CC(=O)Nc1c(O)nc(SCc2ccc(Cl)cc2)[nH]c1=O was read as PKD1 inh -4, HSV augment inactive, RGS16-Gao HTS 122, INS promoter inh 29, GALR2 agonist 0.0, INS promoter inh cell count 134 and HSV augment primary fold 0.98.
CCCN(C(=O)c1ccccc1N)c1c(C)n(C)n(-c2ccccc2)c1=O was read as PKD1 inh 1, HSV augment inactive, RGS16-Gao HTS 99, GALR2 agonist -1.8 and HSV augment primary fold 0.99.
For CC(C(=O)N=c1sc2ccccc2n1C)N1C(=O)C2CC=CCC2C1=O (stereo unspecified) the results were PKD1 inh -2, HSV augment inactive, RGS16-Gao HTS 99, GALR2 agonist -2.1 and HSV augment primary fold 1.
`Cc1ccc(-c2noc(CN(C(=O)c3cccc(Br)c3)C(C)C)n2)cc1` gave PKD1 inh 19, HSV augment inactive, RGS16-Gao HTS 98, GALR2 agonist -1.3 and HSV augment primary fold 0.78.
For CCCn1c(=N)n(CC(O)COc2cccc(C)c2)c2ccccc21 (stereo unspecified) the results were PKD1 inh -3, HSV augment inactive, RGS16-Gao HTS 103, INS promoter inh -29, GALR2 agonist -3.2, INS promoter inh cell count 129 and HSV augment primary fold 0.86.
CCOC(=O)C(C)Oc1c(Br)cc(C2NC(=O)NC(C)=C2C(C)=O)cc1OCC (stereo unspecified) was read as PKD1 inh 13, HSV augment inactive, RGS16-Gao HTS 105, INS promoter inh 7, GALR2 agonist -2.4, INS promoter inh cell count 107 and HSV augment primary fold 0.82.
COc1ccc(CNC(=O)C(C)OC(=O)c2cccn2C)cc1 (stereo unspecified) was read as PKD1 inh -5, HSV augment inactive, RGS16-Gao HTS 82, INS promoter inh -39, GALR2 agonist -1.2, INS promoter inh cell count 124 and HSV augment primary fold 1.1.
Screening CCN1CCN(CCNC(=O)CSCc2nc(-c3ccc(OC)c(OC)c3)oc2C)CC1 returned PKD1 inh -4, HSV augment inactive, RGS16-Gao HTS 102, INS promoter inh -39, GALR2 agonist -1.0, INS promoter inh cell count 102 and HSV augment primary fold 0.94.
Cc1ccc(/C=N/N=C2/NC(=O)CS2)o1 was read as PKD1 inh 1, HSV augment inactive, RGS16-Gao HTS 102, INS promoter inh -20, INS promoter inh cell count 102 and HSV augment primary fold 0.99.
For O=C1CCC([N+](=O)[O-])C(c2cc3c(cc2Br)OCO3)N1 (stereo unspecified) the results were PKD1 inh -1, HSV augment inactive, RGS16-Gao HTS 145, INS promoter inh 3, GALR2 agonist -0.5, INS promoter inh cell count 87 and HSV augment primary fold 1.1.
Cc1ccccc1-c1cc(-c2ccccc2O)on1 was read as PKD1 inh 3, HSV augment inactive, RGS16-Gao HTS 99, GALR2 agonist -1.4 and HSV augment primary fold 0.86.
COc1ccc(NC(=O)CSc2nc3c(c(=O)n2-c2ccc(C)cc2)SCC3)c(OC)c1 was read as PKD1 inh -2, HSV augment inactive, RGS16-Gao HTS 110, INS promoter inh 12, GALR2 agonist -0.7, INS promoter inh cell count 138 and HSV augment primary fold 0.99.
For O=c1c2c3c(sc2nc(NCCO)n1Cc1ccco1)CCCCC3 the results were PKD1 inh -1, HSV augment inactive, RGS16-Gao HTS 147, INS promoter inh 16, GALR2 agonist 0.0, INS promoter inh cell count 101 and HSV augment primary fold 1.
`O=C(NCCN1C(=O)S/C(=C\c2ccc(Cl)cc2)C1=O)c1ccc(F)c(S(=O)(=O)N2CCOCC2)c1` gave PKD1 inh 4, HSV augment inactive, RGS16-Gao HTS 101, INS promoter inh 7, GALR2 agonist -1.4, INS promoter inh cell count 75 and HSV augment primary fold 0.88.
CC(C)N1CCN(Cc2ccc3nsnc3c2)CC1CCO (stereo unspecified) was read as PKD1 inh 0, HSV augment inactive, RGS16-Gao HTS 98 and HSV augment primary fold 0.96.
`NS(=O)(=O)c1ccc(NC(=O)CSc2nnc(-c3cnccn3)n2-c2ccccc2)cc1` gave PKD1 inh -9, HSV augment inactive, RGS16-Gao HTS 98, INS promoter inh -218, GALR2 agonist -0.5, INS promoter inh cell count 86 and HSV augment primary fold 0.99.
Screening CC(=O)OC(C#CCN1CCOCC1)c1ccccc1 (stereo unspecified) returned PKD1 inh 1, HSV augment inactive, RGS16-Gao HTS 91, INS promoter inh 50, GALR2 agonist -2.2, INS promoter inh cell count 166 and HSV augment primary fold 0.78.
CC(=O)Oc1ccc(N(C(C)=O)S(=O)(=O)c2cccs2)c2ccccc12 was read as PKD1 inh 15, HSV augment inactive, RGS16-Gao HTS 118, INS promoter inh 10, GALR2 agonist -1.3, INS promoter inh cell count 111 and HSV augment primary fold 1.3.
For CC(=O)Nc1ccc(S(=O)(=O)C(C#N)c2nc3ccccc3nc2NCCN2CCOCC2)cc1 (stereo unspecified) the results were PKD1 inh 4, HSV augment inactive, RGS16-Gao HTS 100, INS promoter inh 17, INS promoter inh cell count 138 and HSV augment primary fold 1.
Screening CC(=O)NC(=S)Nc1sc2c(c1C(N)=O)CCC(C)C2 (stereo unspecified) returned PKD1 inh -6, HSV augment inactive, RGS16-Gao HTS 106 and HSV augment primary fold 0.92.
Cc1ccc(-c2nn(-c3cccc(F)c3)cc2CNCCc2ccncc2)o1 was read as PKD1 inh 1, HSV augment inactive, RGS16-Gao HTS 102 and HSV augment primary fold 0.97.

Bioassay records as filed in PubChem BioAssay.

Outcome played no part in choosing rows. Share with any hit: about 1.1%.
